# Assay outcomes deposited in PubChem BioAssay by Broad Institute.
# STK33 inh: inhibitors of purified STK33 kinase, primary screen, biochemical, ADP-Glo luminescence, homogeneous, cell-free; inhibition, % at 10 µM; MBP phosphorylation; AID 2661, 2010; Serine/threonine-protein kinase 33 (Homo sapiens), Q9BYT3; 0.073% of 320,000 active;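 active means inhibition at or above 25%, using the most active replicate where run in duplicate; inactive means inhibition below 25%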
# Target sequence (Q9BYT3 whole entry, looked up): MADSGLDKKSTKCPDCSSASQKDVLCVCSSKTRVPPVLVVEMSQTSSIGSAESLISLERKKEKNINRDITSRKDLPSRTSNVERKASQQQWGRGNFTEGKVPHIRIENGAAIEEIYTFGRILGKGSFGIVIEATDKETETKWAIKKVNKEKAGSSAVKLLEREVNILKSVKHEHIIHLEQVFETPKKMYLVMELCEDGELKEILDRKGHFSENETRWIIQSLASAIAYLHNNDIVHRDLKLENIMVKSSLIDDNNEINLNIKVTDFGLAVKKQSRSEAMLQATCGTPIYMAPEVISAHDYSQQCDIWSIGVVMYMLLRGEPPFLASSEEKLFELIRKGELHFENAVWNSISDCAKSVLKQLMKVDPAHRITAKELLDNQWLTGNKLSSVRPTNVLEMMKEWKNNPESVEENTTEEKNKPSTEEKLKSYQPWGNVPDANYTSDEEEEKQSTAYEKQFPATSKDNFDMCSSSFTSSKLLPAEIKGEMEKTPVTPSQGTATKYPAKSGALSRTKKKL
# * = called active by the depositor. Not all compounds are listed; most or all hits stand in other tables.
SMILES,STK33 inh
O=C1c2ccccc2C(Nc2cccc(C(F)(F)F)c2)N1Cc1ccco1 (stereo unspecified),-1.1
Cc1cccc(N2CCN(C(=O)c3cccc(N4C(=O)C5C6C=CC(C6)C5C4=O)c3)CC2)c1C (stereo unspecified),-0.1
CCOc1ccc(C2NC(=S)NC3=C2CCc2ccccc23)cc1 (stereo unspecified),-0.9
CCCOc1ccc(C2C(C(=O)OC)=CN(CCOC)C=C2C(=O)OC)cc1,-1.2
O=C1CC(C(=O)Nc2ccccc2)S/C(=N\N=C\c2ccco2)N1 (stereo unspecified),-1.9
COc1ccccc1/C=N/NC(=O)c1ccc(C)nc1,1.3
O=c1c2c(-c3cccs3)csc2ncn1/N=C/c1ccc(OC(F)F)cc1,-0.5
CCOC(=O)c1c(NC(C)=O)sc2c(O)c(Br)cc(Br)c12,-1.1
O=C(CSc1nnc(CCc2nc3ccccc3[nH]2)n1-c1ccccc1)NCc1ccccc1,-2.3
O=C(O)c1cc(S(=O)(=O)N2CCN(C(c3ccccc3)c3ccccc3)CC2)ccc1Cl,-2.2
S=C(NCCCc1ccccc1)NC1CCCCC1,-0.4
COC(=O)c1c(C)oc2ccc(N(C(=O)c3ccncc3)S(=O)(=O)c3ccc(C)cc3)cc12,-0.9
O=C(Nc1ccc2ccccc2c1)c1cccc([N+](=O)[O-])c1,0.5
CCC(C)c1ccccc1NC(=O)CN(C)CCOc1ccc(Cl)cc1 (stereo unspecified),-0.4
CCOCCC(=O)Nc1cc(Cl)ccc1OC,-3.2
COc1ccc(/C=N/NC(=O)c2c([N+](=O)[O-])c(C)nn2C)cc1,-1.4
COc1ccccc1NS(=O)(=O)c1cc(NC(=O)Nc2cccc(C)c2)ccc1N1CCCCC1,-2.2
CCOC(=O)N1CCN(c2c(NCCN3CCCCC3CC)c(=O)c2=O)CC1 (stereo unspecified),-1.8
CN(Cc1cccnc1)Cc1c(C(=O)N2CCc3ccccc3C2)nc2ccc(Cl)cn12,-0.3
N#CC1=C(N)SC(N)=C(C#N)C1c1ccnc2ccccc12,1.1
CN(C)C(=O)c1ccc(NC(=O)COC(=O)c2cc(S(=O)(=O)N(C)C)ccc2N2CCCC2)cc1,-1.4
CN(CC(=O)Nc1ccc(OC(F)(F)F)cc1)C(=O)Cc1c(Cl)cccc1Cl,-2.8
CCOC(=O)C(NC(=O)CC)(Nc1ccc(S(=O)(=O)Nc2ncccn2)cc1)C(F)(F)F (stereo unspecified),-0.6
Cc1cc(-c2csc(NC(=O)C3=COCCO3)n2)c(C)n1C,-1.3
O=C(Nc1cccc(NC(=O)C2CC3CCCC(C2)C3=O)n1)C1CC2CCCC(C1)C2=O (stereo unspecified),-1.8
CCCCN(C(=O)C1CC(=O)N(c2ccc3c(c2)OCCO3)C1)c1c(N)n(CCCC)c(=O)[nH]c1=O (stereo unspecified),-1.1
COC(=O)C1CCN(S(=O)(=O)CCNC(=O)c2cccc(OC)c2)CC1,-0.2
Cc1cc(=O)[nH]c2c(C)c(Cl)ccc12,0.6
CN(C[C@H](CC1CCCCC1)N(C[C@H](Cc1ccccc1)N(CCc1ccccc1)N=O)N=O)N=O,-0.7
CCCC(=O)OCC(=O)Nc1ccccc1Sc1ccccc1,-0.4
CCOC(=O)C1CCCN(S(=O)(=O)Cc2ccccc2Cl)C1 (stereo unspecified),-0.5
COc1cc(CNC2CCCCC2)c(Br)cc1OC1CCCC1,1.5
COC(=O)c1ccc(COc2ccc(/C=N/O)cc2OC)o1,-1.3
COc1ccc(-n2nc([N+](=O)[O-])c(=NCCC3=CCCCC3)n2O)cc1,-1.1
COc1cc(CNC(C)(C)CO)ccc1OCC(=O)Nc1ccc(Br)cc1,1.0
CCOc1ccc(-n2c(=O)c3sccc3n(CC(=O)NCCc3ccc(OC)c(OC)c3)c2=O)cc1,-0.1
Cc1ccc(S(=O)(=O)N2CCC(C(=O)NCC3CCCCC3)CC2)cc1,-0.7
Cc1c(OCC(=O)NCC(O)c2ccccc2)ccc2c3c(c(=O)oc12)CCC3 (stereo unspecified),-2.9
Cc1ccc(Cn2c(=O)c3c(nc4n3CCCN4Cc3ccccc3)n(C)c2=O)cc1,0.0
COCCNC(=O)C(=O)NCC1OCCN1S(=O)(=O)c1ccc(F)cc1 (stereo unspecified),-1.4
CN(C)S(=O)(=O)c1ccc(C(=O)Nc2ccnn2C2CCCCC2)cc1,-2.6
CC(C)C(=O)NC(=S)Nc1ccc(CN2CCOCC2)cc1,-0.7
Cc1ccc(CN2CCN(c3cccc4[nH]ccc34)CC2)cc1,-1.3
CCOc1cccc(/C(O)=C2/C(=O)C(=O)N(CCN3CCOCC3)C2c2ccncc2)c1 (stereo unspecified),-1.0
Cc1cc2c(NC3CCCCC3)ncnc2s1,-1.5
CCCCSc1nnc([C@H](CC(C)C)NC(=O)OC(C)(C)C)o1,-0.4
Cc1cccc(N=C2NC(=O)/C(=C/c3cccnc3)S2)c1C,-1.1
CSc1ccc(CNC(=O)Cc2ccc(NC(=O)C3=C(C)OCCS3)cc2)cc1,0.7
Fc1ccccc1OCCCCCCN1CCCC1,0.3
CC(C)(C)NC(=O)CN(C(=O)CNC(=O)c1cccs1)c1ccc2c(c1)OCCO2,-0.9

# Part of the list above, bar-delimited:
canonical_smiles | STK33 inh
Cc1ccc(CN2CCN(c3cccc4[nH]ccc34)CC2)cc1 | -1.3
CCOc1cccc(/C(O)=C2/C(=O)C(=O)N(CCN3CCOCC3)C2c2ccncc2)c1 (stereo unspecified) | -1.0
Cc1cc2c(NC3CCCCC3)ncnc2s1 | -1.5
CCCCSc1nnc([C@H](CC(C)C)NC(=O)OC(C)(C)C)o1 | -0.4
Cc1cccc(N=C2NC(=O)/C(=C/c3cccnc3)S2)c1C | -1.1

# (cont.)
SMILES,STK33 inh
CC(=O)c1c(C)[nH]c(C(=O)NCCCN2CCCC2)c1C,-0.2
COc1ccc(-c2[nH]ncc2CNCc2cc(C)n(C)n2)c(F)c1,1.0
Cc1nn(C)c(C)c1NC(=O)c1ccccc1NC(=O)Nc1ccccc1,-0.5
CS(=O)(=O)N(CC(=O)N1CCN(c2cccc(Cl)c2)CC1)c1cccc(F)c1,-0.3
COCCNC(=O)C(=O)NCC1OCCN1S(=O)(=O)c1ccc(C)cc1 (stereo unspecified),-0.3
COc1ccccc1NS(=O)(=O)c1cccc(C(=O)N/N=C/c2ccc(OCC(=O)O)cc2)c1,0.2
CN1CCN(C(N)=NC(=O)c2ccccc2)CC1,1.2
COc1ccc(C(=O)Nc2ccccc2C(=O)Nc2ccncc2)cc1,2.6
COc1ccc(S(=O)(=O)N(CC(=O)NC(C)C)Cc2ccccc2)cc1,0.2
Cc1cc(C)nc(N2CCN(c3ncnc4c3cnn4Cc3ccc(Cl)cc3Cl)CC2)n1,-0.4
COCCN=C1Sc2nc3ccc(C)cc3cc2CN1Cc1cccs1,1.8
COCCCNC(=S)N/N=C/c1ccc(N(C)C)cc1,-1.4
CCn1cc(CNC(=O)c2cccc([N+](=O)[O-])c2)cn1,0.2
O=[N+]([O-])c1ccc(-c2nnc(CNC3CCCC3)o2)cc1,-5.0
CCc1nccn1S(=O)(=O)c1ccc2ccccc2c1,-2.8
CCN(CC)S(=O)(=O)c1ccc(OC)c(NC(=O)c2cccc([N+](=O)[O-])c2C)c1,-3.3
Cc1ccc(Nc2nc(=O)c3cc([N+](=O)[O-])ccc3s2)cc1,-1.3
CCC(C(=O)NC(C)CCc1ccco1)n1nc(C)n2c(cc3occc32)c1=O (stereo unspecified),-0.5
CCc1cccc(OCCOCCN2CCCC2)c1,-0.3
COc1ccccc1C1=NOC(Cn2c(=O)c3c(ncn3C)n(C)c2=O)C1 (stereo unspecified),-1.8
Cc1cccc(-c2sc(Nc3ccccc3)n[n+]2-c2ccc(F)cc2)c1,-1.1
COc1ccccc1CNC(=O)C1CC(=O)N(c2ccc(C)c(C)c2)C1 (stereo unspecified),-0.7
CC(C)NC(=O)CC(=O)N/N=C/c1c(F)cccc1Cl,-2.1
COC/C=C/C1=CC2=CC(=O)C(C)(OC(=O)c3cnc4ccccc4n3)C(=O)C2=CO1 (stereo unspecified),-0.1
Cc1occc1C(=O)Nc1sc2c(c1C(N)=O)CCCCC2,0.9
O=C([C@@H]1CC=C[C@@H]2CCN(C3CCCCC3)C(=O)[C@@H]21)N1CCN(c2ccccc2)CC1,-0.6
Cc1ccn(CCNC(=O)C2CCC(=O)N(Cc3ccc(Cl)cc3)C2)n1 (stereo unspecified),0.2
N=C(SC1CC(=O)N(c2ccc(F)cc2)C1=O)N1N=C(c2ccccc2)CC1c1ccccc1 (stereo unspecified),-0.6
O=C(COc1ccc(Cl)cc1Cl)NCCCn1ccnc1,-2.4
CC(C)(C)OC(=O)NCCC(=O)N/N=C/c1cccc2nccnc12,0.5
CO/N=C(\C(=O)O)c1csc(NN=C(C)C)n1,-0.2
CC(C)(C)n1nc2c(c1NC(=O)c1ccccc1S(=O)(=O)C(F)F)CS(=O)(=O)C2,-0.5
COc1ccnc(CSC(N)=Nc2ccc(F)cc2)c1,1.2
CCOC(=O)c1ccc(-c2cccc(C(F)(F)F)c2)nc1C,0.5
O=C(c1cc2nc(-c3ccco3)cc(C(F)(F)F)n2n1)N1CCCc2ccccc21,0.3
C/C(=N\NC(=O)CSc1nc(C)cc(C)n1)c1ccc([N+](=O)[O-])cc1,0.1
COc1ccc([N+](=O)[O-])cc1NC(=O)/C=C/C(=O)O,-1.2
O=C1OCc2ccc(NS(=O)(=O)c3ccc(C(F)(F)F)cc3)cc21,-2.8
CC(=O)Nc1cccc(/C(C)=N/NC(=O)c2cc(-c3ccncc3)nc3ccccc23)c1,1.2
CCCCNC(=O)Cn1c(=O)c2c(ncn2CC)n(Cc2ccccc2)c1=O,1.0
Cc1ccccc1-c1noc(-c2cccs2)n1,-2.5
O=C(O)c1ccc[nH]c1=S,0.3
CC(=O)N1c2ccc(S(=O)(=O)N3CCC(C(=O)Nc4ccccn4)CC3)cc2CC1C (stereo unspecified),0.5
COc1ccc(S(=O)(=O)N2CCOCC2)cc1C(=O)Nc1nc2ccccc2s1,-1.8
CCc1nnc(SCC(=O)NC2CCCCC2)nc1CC,2.1
COc1cc(C)ccc1OCCCOc1cc(C)ccc1Cl,2.0
O=C(CCC1CCCN(C(=O)Cn2cnnn2)C1)NCc1ccc(F)c(F)c1 (stereo unspecified),-3.2
COc1ccc(Cl)cc1NC(=O)CN1CCN(Cc2ccccc2)CC1,-0.7
O=C(Nc1cccc(-c2cn3cccnc3n2)c1)c1ccc2c(c1)OCO2,2.7
CCOc1ccc(NC(=O)CSc2nnc(C)n2CC)cc1,-0.6
# Remaining list, next part.
SMILES,STK33 inh
O=C(NCCc1ccco1)c1nn(Cc2ccccc2)c(=O)c2ccccc12,-1.0
c1ccc(NC2=NCCN2CC2CCCC2)cc1,-0.6
CCN(CC)S(=O)(=O)c1ccc(NCC2COc3ccccc3O2)c([N+](=O)[O-])c1 (stereo unspecified),1.0
CC1=NC(Nc2nc(C)c3ccccc3n2)=NC(C)(C)C1,0.5
COC(=O)c1ccccc1NC(=O)C1CC(=O)N(c2ccccc2)C1 (stereo unspecified),-0.1
CCOC(=O)c1[nH]c2ccc(OC)cc2c1NC(=O)CCN1CCC(C)CC1,-1.2
CC(=O)Nc1ccc(S(=O)(=O)NCC(=O)OCc2ccccc2)cc1,-0.9
CC(=O)Nc1ccc(NC(=O)c2cccc(C(=O)OC(C)C)n2)cc1,3.7
CC(C)Oc1ccc(C(=O)N/N=C/c2ccc(-c3ccc(S(=O)(=O)Nc4ncccn4)cc3)o2)cc1,-0.5
CCN1C(=O)/C(=C/c2nc3ccccc3c(=O)n2-c2ccc(C)cc2)c2ccccc21,-0.8
O=C(Nc1cccnc1Oc1ncnc2cc(Cl)ccc12)c1ccc(F)cc1,-0.3
CC(=O)NC(Cc1ccc(O)cc1)C(=O)NN (stereo unspecified),-1.1
O=C(O)CN(C1CCCCC1)S(=O)(=O)c1ccc(F)cc1,-0.8
COCCNC(=O)C(=O)N/N=C(\C)CC(=O)Nc1ccc2c(c1)OCO2,-2.0
O=C(NC(=S)NCCN1CCOCC1)c1ccc(Cl)cc1,0.3
CCCCNC(=O)CCCCC(=O)N/N=C/c1cccc(Cl)c1,-0.8
COc1ccc(NS(=O)(=O)c2cccc3nsnc23)cc1Cl,-1.2
COc1ccc(NC(=O)COC(=O)c2ccc(Cl)c(S(N)(=O)=O)c2)c([N+](=O)[O-])c1,1.3
CN(C(=O)c1cc2c(s1)-c1ccccc1S(=O)(=O)C2)c1ccccc1,0.3
c1coc(-c2nnc(NC3=NCCC3)o2)c1,0.4

# A second format for some results above.
Structure	STK33 inh
O=C(NC(=S)NCCN1CCOCC1)c1ccc(Cl)cc1	0.3
CCCCNC(=O)CCCCC(=O)N/N=C/c1cccc(Cl)c1	-0.8
COc1ccc(NS(=O)(=O)c2cccc3nsnc23)cc1Cl	-1.2
COc1ccc(NC(=O)COC(=O)c2ccc(Cl)c(S(N)(=O)=O)c2)c([N+](=O)[O-])c1	1.3

# The main list resumes, repeating the 3 entries before the break.
SMILES,STK33 inh
COc1ccc(NC(=O)COC(=O)c2ccc(Cl)c(S(N)(=O)=O)c2)c([N+](=O)[O-])c1,1.3
CN(C(=O)c1cc2c(s1)-c1ccccc1S(=O)(=O)C2)c1ccccc1,0.3
c1coc(-c2nnc(NC3=NCCC3)o2)c1,0.4
COC(=O)c1cccc(NC(=O)c2cc3sccc3n2C)c1,-0.7
COc1ccc2cc(C3CC(c4ccco4)=NN3C(=O)CCC(=O)O)c(Cl)nc2c1 (stereo unspecified),-1.5
CCN(CC)S(=O)(=O)c1cccc(C(=O)N[C@H](C(=O)OCC(=O)NC(=O)NC)C(C)C)c1,-1.1
Cc1nc(C)n(CC(C)C(=O)N2CCN(S(=O)(=O)c3ccc(Cl)cc3)CC2)n1 (stereo unspecified),0.8
O=c1c(-c2ccc3c(c2)OCCO3)coc2cc(OC3OC(CO)C(O)C(O)C3O)ccc12 (stereo unspecified),-3.0
CCOc1cc(CNC(C)C)c(Cl)cc1OCC(=O)NCCc1ccccc1,-0.1
